VACV Venus inh: vaccinia inhibition (Venus reporter). Vaccinia virus Venus reporter expression, fluorescence. AID 720580. 330,000 compounds, 0.46% hits. Potency, µM (highest dose often 36.5 µM), for inactives: at the highest dose activity change, negative = inhibition, actives largely listed as inhibitors; active means well fitted inhibition curve with a large enough effect; inconclusive means small, poorly fitted or top-dose-only effect; inactive means no such curve, though single readings can be large or run the other way; tested in A549 cells; further: nearly all actives have a fitted effect of over 30% in size; inactives centre near -10
VACV mCherry inh: vaccinia inhibition (mCherry reporter). Vaccinia virus mCherry reporter infection, fluorescence; about a quarter of the inactives have no number. Potency, µM (series often up to 36.5 µM), inactives show at the highest dose activity change, negative = inhibition, usual class: inhibitors. 310,000 compounds, 0.63% hits; active = well fitted inhibition curve with a large enough effect; inconclusive = small, poorly fitted or top-dose-only effect; inactive = no such curve, though single readings can be large or run the other way; tested in A549 cells; further: nearly all actives have a fitted effect of over 35% in size; inactives centre near -10
Active calls of the source: *; i = inactive; ? = inconclusive; . = not tested or not shown; [ ] = remark or other dose. On the % scale 0 is the no-effect control and ±100 the full control effect; potency means the concentration at half of the fitted maximal effect.

Structure	VACV Venus inh	VACV mCherry inh
Cc1onc(-c2ccncc2)c1C(=O)O	-4%	i
COc1cc(/C=N/NC(=O)Nc2cccc3nsnc23)cc(OC)c1OC	-8%	.
CCC/C=N/O	-17%	i
O=C(/C=C/c1ccccc1Cl)NC1CCS(=O)(=O)C1 (centres undefined)	9%	4%
CCc1ccccc1NC(=O)CNC(=O)c1ccccc1OCc1c(C)noc1C	-21%	-5%
c1ccc(OCCCCn2cnc3ccccc32)cc1	-21%	i
CCOC(=O)C(NC(C)=O)C(O)c1ccc([N+](=O)[O-])cc1 (centres undefined)	-28%	-3%
O=C(C(=O)N1CCOCC1)c1cn(CC(=O)N2CCCCC2)c2ccccc12	-8%	i
N#CNC(=Nc1ccc(Cl)cc1)Oc1ccccc1	2%[7.34 µM]	-2%[7.34 µM]
Cc1ccccc1OCCC(=O)OCC(=O)NCCNC(=O)COC(=O)CCOc1ccccc1C	-6%	-18%
CC(Oc1ccc(Br)cc1)C(=O)N1CCC(C(N)=O)CC1 (centres undefined)	-6%	-8%
CCn1c(CC(=O)Nc2ccc(C)c(Cl)c2)nnc1SCC(=O)Nc1nc(C)cs1	-16%	i
COc1cc(OC)cc(-c2cc3cc(F)ccc3cn2)c1	-17%	?
CCC(=O)Nc1ccc(C(=O)N/N=C/c2cc(Br)c(OC)cc2OC)cc1	-11%	-15%
COc1ccc(C(=O)OCC(=O)c2c(N)n(C)c(=O)n(C)c2=O)cc1OC	-7%	-3%
CCn1c(SCC(=O)N2CCc3ccccc3C2)nc2sc(C)c(C)c2c1=O	2%	-9%
COc1ccc(N(CC(=O)N2CCc3ccccc3C2)S(=O)(=O)c2ccc(C)cc2)cc1Cl	-1%	-2%
C[C@@H]1CN([C@H](C)CO)C(=O)CCCn2nncc2CO[C@@H]1CN(C)S(=O)(=O)c1ccccc1C#N	-18%	-22%
CCOc1ccc(C(c2c(O)cc(C)n(Cc3ccco3)c2=O)N2CCN(c3ccccc3)CC2)cc1 (centres undefined)	-8%	-8%
CCN(c1cccc(C)c1)S(=O)(=O)c1c(C)[nH]c(C)c1C(=O)N1CCCCC1	-6%	-9%
COc1ccc(CCNC(=O)CNC(=O)c2ccc3c(c2)OCO3)cc1OC	-12%	?
O=C(c1ccc2c(=O)n(CCc3ccccc3)c(=O)[nH]c2c1)N1CCN(C(=O)c2ccco2)CC1	-17%	0%
O=C(COC(=O)c1ccccn1)NCCCc1ccccc1	-15%	-12%[1.46 µM]
COc1cccc(-c2csc(N3CCN(C(=O)C4CCCCC4)CC3)n2)c1	-7%	i
CC(=O)c1c(C)[nH]c(C(=O)NCc2cccc(Cl)c2)c1C	-10%	i
CC(C)NC(=O)CN1C(=O)CSc2ccc(S(=O)(=O)N3CCCC3)cc21	-10%	i
CCc1ccc(/C=C\C(=O)N2CCc3ccccc3C2)cc1	19%	-7%
COc1ccc(-c2nc3c(c(SCC(=O)Nc4cc(C)cc(C)c4)n2)Cc2c(CO)cnc(C)c2O3)cc1	2%	1%
CCOc1ccc(C(=O)CCC(=O)N(CC)CC(=O)NCc2cccs2)cc1	-14%	-2%
O=[N+]([O-])c1cccc(COc2cccc(CN3CCOCC3)c2)c1	-25%	-12%
O=C(NC1CCSC1=O)C1CC(=O)N(c2ccc(F)cc2)C1 (centres undefined)	18%	1%
Cc1ccc(/C(O)=C2/C(=O)C(=O)N(CC(=O)O)C2c2ccc([N+](=O)[O-])cc2)cc1 (centres undefined)	-9%	i
C/C(=N\N1CCCCCC1)c1c(O)n(-c2ccccc2)c(=O)[nH]c1=O	-12%	-11%
COc1ccc(C(=O)COC(=O)c2cc(=O)c3ccccc3o2)cc1	-6%	i
Cc1cc(C)cc(-c2nnc(SCC(=O)Nc3cc(C)on3)o2)c1	-5%	i
CNC(=O)c1ccc(-c2ccc(OC)cc2)s1	?	.
O=C(Nc1ncc(Br)s1)C1CCCN1S(=O)(=O)c1cccc2cccnc12 (centres undefined)	-12%	13%
Cn1c(=O)c2cc(NC(=O)NCCc3cccs3)ccc2n1C/C=C/c1ccccc1	3%	6%
O=C1N(c2cccc(Cl)c2)C(c2ccc(Cl)cc2)N2CCCN12 (centres undefined)	-15%	-4%
CCN(C(=O)COC(=O)/C=C/c1c(C)nn(-c2ccccc2)c1C)C1CCS(=O)(=O)C1 (centres undefined)	7%	-3%
Cc1nnc(NC(=O)CSc2nnc(CC(=O)Nc3ccccc3F)n2C)s1	1%	-10%
CN(C)CCCN(C(=O)c1ccc(S(=O)(=O)N2CCCCCC2)cc1)c1nc2ccc(F)cc2s1	-25%	-23%
CC(C)c1ccc(NC(=O)C2CCC(CNS(=O)(=O)c3ccc4c(c3)CCCC(=O)N4)CC2)cc1 (centres undefined)	?	?
Cc1nn(C(C)C(=O)N2CCCCC2)c(=O)c2c1sc1ccccc12 (centres undefined)	-3%	.
CCC(=O)c1ccc(OCC(=O)OCC(=O)NC2CCCC2)cc1	-24%	i
S=c1[nH]nc(-c2ccco2)n1/N=C/C=C/c1ccco1	-26%	i
O=C(CCn1cnc2onc(-c3ccc(F)cc3)c2c1=O)N1CCN(c2ccccc2F)CC1	6%	9%
CCOC(=O)c1c(N)sc(C(=O)N2CCCC2)c1C	?	.
O=C(CNC(=O)c1cccs1)NCCc1ccco1	0%	-2%
COC(=O)c1ccc(CSc2nnc(NC(C)C)s2)o1	-15%	i

Additional entries follow:
Structure	VACV Venus inh	VACV mCherry inh
Cc1ccc(S(=O)(=O)N2CCC(C(=O)OCC(=O)NCCc3ccccc3)CC2)cc1C	-10%	-3%
O=C(COC(=O)COc1ccc(Br)cc1)NCC1CCCO1 (centres undefined)	-4%	-14%
CCc1ccc(CNC(=O)c2cnc3c(C)cccn3c2=O)cc1	-2%	-12%
CCOP(=O)(CC(C(C)=O)C(O)c1ccccc1)OCC (centres undefined)	-11%	i
CCOCCCNC(=O)C(c1ccc(C)cc1)N1CCOCC1 (centres undefined)	0%	-14%
O=C1c2cccnc2C(=O)N1Cc1ccc(S(=O)(=O)N2CCOc3ccccc32)cc1	-4%	-17%
COc1cccc(NC(=O)Nc2ccccc2C(N)=O)c1	-8%	i
O=C(CSc1ccccc1)Nc1ccc(Cl)c(S(=O)(=O)N2CCOCC2)c1	-5%	?
COc1ccccc1Nc1c2c(nc3ccc(NC(=O)/C=C/c4cc(OC)c(OC)c(OC)c4)cc13)CCCC2	-9%[7.34 µM]	-17%[7.34 µM]
C[C@@H]1CN([C@@H](C)CO)C(=O)c2cc(Br)cnc2O[C@@H]1CN(C)C(=O)CN(C)C	2%	i
COc1ccc(-c2[nH]ncc2CN2CCN(C(=O)c3ccco3)CC2)cc1F	-20%	i
Cc1ccccc1C(=O)NC1CCN(Cc2ccccc2)CC1	5%	i
COc1ccc(OC)c(S(=O)(=O)Nc2ccc3c(c2)N(C(C)=O)CCC3)c1	-16%	-22%
COc1ccc(C)cc1S(=O)(=O)N1CCN(S(=O)(=O)c2cc(C)ccc2OC)CC1	-20%	-15%
CCC1CCCCN1C(=O)CSc1nnc(-c2ccc3c(c2)OCCO3)o1 (centres undefined)	?	.
Cc1ccc(CNC(=O)c2ccc3c(c2)nc(C)n3-c2cc(C)cc(C)c2)cc1	-14%	-14%
O=S(=O)(Nc1ccc(-c2ccc3nncn3n2)cc1)c1ccccc1Cl	-13%	i
O=C(/C=C/c1ccccc1)N1Cc2ccccc2-n2nncc2C1	-8%	3%
C=CCOC(=O)C1=C(C)OC(N)=C(C#N)[C@@]12C(=O)N(CC(N)=O)c1ccccc12	-6%	i
COc1ccccc1NC(=O)CCc1c(C)nc2c(-c3ccc(F)cc3)c(C)nn2c1C	-4%	9%
NC(=O)COC(=O)c1cc(-c2ccco2)nc2ccccc12	-2%	i
COC(=O)c1cc2c(=O)c3ccccc3oc2nc1/C=C/N(C)C	107%[activator]	25%
CC(=O)c1cccc(NC(=O)CN(C)S(=O)(=O)c2ccc3c(c2)CCC(=O)N3)c1	-9%	i
CC(C#N)Sc1nnc(Nc2ccccc2)s1 (centres undefined)	-16%	-6%
CCOC(=O)C1CCCN(c2cc(=O)n(Cc3ccc(F)cc3)c(=O)[nH]2)C1 (centres undefined)	-7%	-18%

Entries from the list above that contain an NH in an aromatic ring:
Structure	VACV Venus inh	VACV mCherry inh
CCN(c1cccc(C)c1)S(=O)(=O)c1c(C)[nH]c(C)c1C(=O)N1CCCCC1	-6%	-9%
O=C(c1ccc2c(=O)n(CCc3ccccc3)c(=O)[nH]c2c1)N1CCN(C(=O)c2ccco2)CC1	-17%	0%
CC(=O)c1c(C)[nH]c(C(=O)NCc2cccc(Cl)c2)c1C	-10%	i
C/C(=N\N1CCCCCC1)c1c(O)n(-c2ccccc2)c(=O)[nH]c1=O	-12%	-11%
S=c1[nH]nc(-c2ccco2)n1/N=C/C=C/c1ccco1	-26%	i
COc1ccc(-c2[nH]ncc2CN2CCN(C(=O)c3ccco3)CC2)cc1F	-20%	i
CCOC(=O)C1CCCN(c2cc(=O)n(Cc3ccc(F)cc3)c(=O)[nH]2)C1 (centres undefined)	-7%	-18%

More records:
Structure	VACV Venus inh	VACV mCherry inh
CCOC(=O)N=S(=O)(Oc1ccc([N+](=O)[O-])cc1)c1ccc(Cl)cc1 (centres undefined)	-13%	.
Cc1ccc(-c2noc(CCC(=O)NCCCN3CCN(c4cccc(Cl)c4)CC3)n2)cc1	?	.
COc1ccc(CN2CCOc3c(cc(-c4cccc(OC)n4)cc3OC)C2)c(O)c1	0%	i
COC(=O)[C@@H]1C[C@@]2(O)[C@H](O)[C@H](O)[C@H](O)C[C@H]2N1Cc1ccccc1OS(=O)(=O)c1ccc(C)cc1	-26%	i
CC(=O)N1CCN(C(=O)c2cccc(S(=O)(=O)Nc3ccc(C)cc3)c2)CC1	-16%	-4%[1.46 µM]
COc1ccc(N2CCN(CCNC(=O)CCNS(=O)(=O)c3cccs3)CC2)cc1	-8%	-12%
O=C(O)c1occc1CSc1ccccc1	-4%	-11%
CCOC(=O)C(=CNc1cc(C)nn1-c1ccc(C)cc1)C(=O)OCC	-25%	-27%
O=C(COC(=O)c1cccnc1Cl)Nc1cc(S(=O)(=O)N2CCCCCC2)ccc1Cl	-11%	-15%
CC(C)CC(=O)NN(C)c1nc(-c2ccccc2)nnc1C(F)(F)F	-6%	-6%
CCCN(C(=O)c1ccccc1Cc1ccccc1)C1CCS(=O)(=O)C1 (centres undefined)	-8%	-13%
N#CCCN(Cc1cccnc1)S(=O)(=O)c1ccc(S(=O)(=O)NC2CCCCC2)cc1	-25%	-27%
O=C(Nc1nnc(Cc2c[nH]c3ccccc23)s1)c1ccc(Cl)cc1Cl	7%	-13%
O=C(Nc1ccc(F)cc1Cl)c1cnc(N2CCOCC2)c2ccccc12	-7%	-9%
COc1ccc(Oc2ncccc2NC(=O)c2cccc(C)c2C)cc1	-22%	-19%
C[C@H](CO)N1C[C@H](C)[C@@H](CN(C)C(=O)NC2CCCCC2)Oc2c(NC(=O)Cc3ccccc3)cccc2C1=O	-24%	-27%
COc1cc(CN(C)Cc2ccccc2)cc(OC)c1O	-22%	-3%
COc1ccc(CCNc2nc(-c3cccc(NC(C)=O)c3)cs2)cc1OC	-22%	-14%
Cc1ccc(NC(=O)C2CCCN2S(=O)(=O)c2ccc3c(c2)CCCC(=O)N3)cc1Cl (centres undefined)	?	?
Cc1ccc(C(=O)CSc2nnc(CNc3ccc(F)cc3)o2)cc1	-18%	-7%
O=C(NCc1cccnc1)c1ccc(CS(=O)(=O)c2ccc(Cl)cc2)o1	-27%	.
COc1ccc(CNS(=O)(=O)c2cnc(N)nc2)c(OC)c1	-5%	-11%
CCOc1cc(Br)ccc1S(=O)(=O)N1CC(C)OC(C)C1 (centres undefined)	-16%	-10%
Cc1cccc(C)c1OCC(=O)N(Cc1ccc(Cl)cc1)CC1CCCO1 (centres undefined)	-17%	-16%
CS(=O)(=O)c1nc(S(=O)(=O)c2ccc(Cl)cc2)c(NCCCN2CCCC2=O)s1	0%[7.34 µM]	i[7.34 µM]
Cc1cc(NC(=O)CSc2nnc(CNC(=O)c3cccc(C(F)(F)F)c3)o2)no1	-4%	-6%
COc1ccc(C(=O)/C=C/c2cn(CC(O)CN3CCOCC3)c3ccccc23)cc1 (centres undefined)	-27%	-18%
OCc1cnc(SCc2ccccc2F)n1Cc1ccc(F)cc1	-11%	-15%
COc1ccc(OCC(=O)N/N=C(\C)c2ccc(OC)cc2)cc1	-6%	-4%
CCN1C(=O)[C@H]2[C@@H](c3ccc(OC)cc3)N3C(=O)CN(Cc4ccccc4)C(=O)[C@@]3(Cc3ccccc3)[C@H]2C1=O	-6%	i
C/C(=N\OC(=O)c1ccc(C)cc1)c1sc(C)nc1C	-29%	.
Cc1cc(C(F)F)n2nc(C(=O)Nc3cc(C)on3)nc2n1	-15%	.
Cc1cc(C)c(NC(=O)CCCn2c(C)c3cnn(-c4ccccc4)c(=O)c3c2C)c(C)c1	-21%	-18%
CCC(C(=O)Nc1cccc(C#N)c1)n1c(=O)c(-c2ccccc2NC(C)=O)nc2ccccc21 (centres undefined)	-12%	-26%
